Assay outcomes from PubChem.
UCH37 DUB inh = blocks the human deubiquitinase UCH37; purified proteasome/UCH37, Ub-AMC cleavage fluorescence; inhibition, % (concentration not given with the values); actives 0.33% (n = 330,000); AID 588478;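 active = mean of two replicates above 20%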;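 also: 0% = compound-free wells with enzyme and 100% = wells lacking proteasome; stock transfer was 100 nL into about 20 µL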
Target sequence (Q9Y5K5 whole entry, looked up): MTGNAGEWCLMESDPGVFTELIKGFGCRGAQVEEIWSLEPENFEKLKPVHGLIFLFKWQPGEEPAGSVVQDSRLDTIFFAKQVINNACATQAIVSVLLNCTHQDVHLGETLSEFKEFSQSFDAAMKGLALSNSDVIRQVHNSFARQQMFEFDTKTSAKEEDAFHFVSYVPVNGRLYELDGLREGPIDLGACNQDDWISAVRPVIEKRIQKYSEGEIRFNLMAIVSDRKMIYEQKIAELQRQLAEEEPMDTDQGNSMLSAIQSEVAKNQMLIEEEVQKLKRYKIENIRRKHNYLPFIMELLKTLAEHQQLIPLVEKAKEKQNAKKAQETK
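Material: Human UCH37 enzyme supplied as purified proteasome complex | Schedule: 30 min compound-proteasome preincubation then 25 min substrate reaction, room temperature | Detection: AMC fluorescence from Ub-AMC cleavage, excitation 355 nm, emission 460 nm | Benchmarks: Wells without proteasome as full block, compound-free enzyme plus substrate as uninhibited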
E coli growth = E. coli growth inhibition; OD600 absorbance (test concentration not listed); actives 0.21% (n = 330,000); AID 1053175; Escherichia coli growth, OD600, 23 h; active compounds read low;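 active = OD600 absorbance below the run mean of sample wells minus 3.6 SD, in any replicate, cut at about 0.56 in these data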;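 also: stock transfer was 300 nL into about 60 µL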
B2AR ag = activates human beta-2 adrenergic receptor causing internalization; P07550; Am2.2-beta2AR cells, FAP receptor internalization, flow cytometry; reference of the scale not given here; response, % (no concentration beside the values); actives 0.43% (n = 340,000);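 active = response above a set limit, near 3 SD of response in nonfluorescent compounds, cut at about 42% in these data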;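 also: stock transfer was 100 nL into about 11 µL; a reference agonist was the positive control; negative values mostly stem from fluorescent compounds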
Target sequence (P07550 whole entry, looked up): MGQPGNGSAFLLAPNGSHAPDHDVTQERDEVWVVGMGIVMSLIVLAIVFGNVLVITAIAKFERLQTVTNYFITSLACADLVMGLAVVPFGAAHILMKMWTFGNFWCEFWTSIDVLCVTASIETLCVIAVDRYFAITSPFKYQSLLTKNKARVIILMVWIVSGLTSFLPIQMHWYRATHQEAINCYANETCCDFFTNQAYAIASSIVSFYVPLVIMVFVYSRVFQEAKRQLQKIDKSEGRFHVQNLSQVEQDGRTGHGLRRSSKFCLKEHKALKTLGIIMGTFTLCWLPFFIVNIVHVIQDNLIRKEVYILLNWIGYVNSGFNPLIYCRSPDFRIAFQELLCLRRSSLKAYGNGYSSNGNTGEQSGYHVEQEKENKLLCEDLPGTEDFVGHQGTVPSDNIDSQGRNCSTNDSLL
rRNA inh HTS = selective bacterial rRNA inhibition in E. coli | E. coli WT GFP vs humanized-ribosome RFP mutants, fluorescence, 24 h; active compounds read low; DMSO median 0, no signal -100 | actives 1.6% (n = 350,000) | GFP signal change (wild-type ribosome), % (no concentration beside the values);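 active = significant combined selectivity score with lowered wild-type GFP, culture density cut under 30%, mutant RFP and density less affected; inactive = any of these conditions unmet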; also: one replicate is shown; some compounds called inactive have numbers as strong as hits
FGF22 binding = shifts melting point of recombinant human FGF22 | Q9HCT0 | recombinant FGF22 thermal shift, SYPRO orange fluorescence; percent of sucrose octasulfate shift, DMSO zero | calls only at 9.99 µM | actives 1.5% (n = 340,000);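 active = melting point raised past a set limit in the mean and every replicate; inconclusive = no clear call; three in four hits are not shown here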
HNF4A DNA FP = change in binding of human HNF4 alpha to DNA. activity change, % at 10 µM. P41235. HNF4a-FITC DNA binding, fluorescence polarization, 1 h. actives 0.3% (n = 360,000); in the data active = activity change above about 30%, passing the limit was not always enough;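 also: controls were the assay level and a saturating level of protein; the project sought stronger binding though the title names inhibitors; some compounds called inactive have numbers as strong as hits; positive values seem to mean higher polarization but the record does not say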
ALR inh = human ALR oxidase inhibition via reduced H2O2. purified ALR, DTT oxidation, H2O2 HRP-luminol luminescence. inhibition, % (concentration not given with the values). actives 3.8% (n = 290,000). AID 485317;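 active = mean and each replicate at 75% or more; inconclusive = only one of the two met; inactive = neither met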;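 also: stock transfer was 7.5 nL into about 7.5 µL; 0% = neutral wells and 100% = wells with inactivated enzyme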
Target sequence (P55789 whole entry, looked up): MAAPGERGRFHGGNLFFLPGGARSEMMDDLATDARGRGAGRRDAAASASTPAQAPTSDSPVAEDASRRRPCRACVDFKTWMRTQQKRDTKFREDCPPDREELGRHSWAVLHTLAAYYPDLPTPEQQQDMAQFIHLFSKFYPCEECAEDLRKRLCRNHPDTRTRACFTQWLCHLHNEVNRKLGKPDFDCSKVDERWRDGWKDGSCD
rRNA inh HTS OD600 = recorded beside rRNA inh HTS, whose call it bears; OD600 change, %; measured here: OD600 growth;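 optical density of the mix in the first replicate; 0 = DMSO median and -100 = no signal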
rRNA inh HTS RFP = further read-out of rRNA inh HTS, marked with its call; RFP signal change, %; measured here: RFP humanized mutant strains;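 first replicate; 0 = DMSO median and -100 = no signal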
* hit, by the source's call; i = inactive; ? = inconclusive; nt = no result given; + = active, no number. These rows are one share of the data; rates above refer to the full screens.

SMILES | UCH37 DUB inh | E coli growth | B2AR ag | rRNA inh HTS | rRNA inh HTS OD600 | rRNA inh HTS RFP | FGF22 binding | HNF4A DNA FP | ALR inh
CCC(=O)N1CCN(c2ccccc2NC(=O)c2ccc(-c3cccc([N+](=O)[O-])c3)o2)CC1 | 1.6 | 0.71 | -3 | 14 | 11 | 2.2 | i | -3.3 | -1
O=C(Nc1ccc2nccnc2c1)c1ccco1 | -299 | 0.64 | -13 | 2 | 9 | -2.4 | i | -5.4 | -48
O=C(c1ccc(Cl)cc1)N(Cc1ccc(Br)cc1)N1C(=O)CCC1=O | 2.6 | 0.7 | 0 | -20 | -13 | -7.8 | i | -0.5 | -2
Cc1ccc2oc(C(=O)Nc3ccc(S(=O)(=O)Nc4onc(C)c4C)cc3)c(C)c2c1 | 7.3 | 0.69 | 4 | -2 | -4 | 1.6 | i | -2.8 | 98*
O=C(CCN1C(=O)C2C3C=CC(C3)C2C1=O)N1CCN(c2ccc(F)cc2)CC1 (stereo unspecified) | 3.1 | 0.79 | 0 | nt | nt | nt | nt | -0.7 | 97*
CN(C1=NC(=O)CS1)c1ccc(O)cc1 | 4.4 | 0.72 | -2 | 5 | 2 | -5.5 | i | -2.7 | -11
CC1(C)CC(=O)C=C(c2ccccc2-c2ccc(S(C)(=O)=O)cc2)C1=O | nt | nt | nt | -17 | -28 | -4.8 | i | 2.4 | nt
Cc1nn(-c2ccccc2)c(C)c1-c1nnc(-c2c(C)nn(-c3ccccc3)c2C)o1 | -0.1 | 0.68 | 19 | 4 | 9 | -1.0 | i | -0.9 | -12
Cc1ccc(C(=O)NC(=S)Nc2ccc(CN3CCCCC3)cc2)c(C)c1 | 1.3 | 0.68 | -24 | -5 | -8 | 0.2 | i | -0.3 | 6
Fc1ccc(Sc2cc(Cl)c(-c3ccccc3)nn2)cc1 | 3.9 | 0.74 | 2 | nt | nt | nt | nt | 0.8 | 1
COc1ccc(Cc2nnc(NC(=O)c3cccc([N+](=O)[O-])c3C)s2)cc1 | 3.7 | 0.72 | -1 | nt | nt | nt | nt | 3.4 | -4
O=C(NCc1cccs1)C1CCC(CNS(=O)(=O)c2cccc3nsnc23)CC1 (stereo unspecified) | 5.4 | 0.73 | 5 | 5 | 8 | -1.0 | i | -1.6 | 4

The final 2 records of the part above open the next one:
SMILES | UCH37 DUB inh | E coli growth | B2AR ag | rRNA inh HTS | rRNA inh HTS OD600 | rRNA inh HTS RFP | FGF22 binding | HNF4A DNA FP | ALR inh
COc1ccc(Cc2nnc(NC(=O)c3cccc([N+](=O)[O-])c3C)s2)cc1 | 3.7 | 0.72 | -1 | nt | nt | nt | nt | 3.4 | -4
O=C(NCc1cccs1)C1CCC(CNS(=O)(=O)c2cccc3nsnc23)CC1 (stereo unspecified) | 5.4 | 0.73 | 5 | 5 | 8 | -1.0 | i | -1.6 | 4
COc1ccc(C(c2nnnn2Cc2ccccc2)N2CCN(c3nc4ccccc4s3)CC2)cc1OC (stereo unspecified) | 2.4 | 0.73 | 18 | nt | nt | nt | nt | -0.4 | -7
CC(C)C(NC(=O)c1c(F)cccc1F)C(=O)NCc1ccc(S(=O)(=O)N2CCOCC2)cc1 (stereo unspecified) | 0.2 | 0.66 | -3 | 5 | 8 | -0.8 | i | 6.1 | -2
O=C(Cn1nnc(-c2ccc(N3CCOCC3)cc2)n1)N1CCOCC1 | 3.0 | 0.68 | nt | nt | nt | nt | nt | nt | -6
O=C1NC(=Nc2ccc(F)cc2)CS1 | 0.4 | 0.66 | -2 | -9 | -15 | 0.7 | i | -0.1 | 31
Nc1c(C(=O)NCCC2=CCCCC2)sc2ccc(S(=O)(=O)N3CCCCC3)cc12 | -12 | 0.7 | 9 | 3 | -2 | 1.0 | i | 3.0 | -3
Cc1ccc(NS(=O)(=O)c2ccc(C(=O)N3CCN(c4ccccn4)CC3)cc2)cc1 | nt | 0.69 | 3 | nt | nt | nt | nt | 2.4 | -2
COC(=O)c1ccccc1NC(=O)CSc1nc2ncccc2[nH]1 | 0.5 | 0.66 | 3 | 1 | -5 | -1.1 | i | -2.6 | nt
CCCCn1c(N)c(N(CC)C(=O)C2=NN(c3ccccc3)C(=O)CC2)c(=O)[nH]c1=O | -0.8 | 0.65 | -4 | 28 | 22 | 2.3 | i | -0.8 | -4
COc1ccccc1NC(=O)CSc1sc2c(O)cc(=O)[nH]c2c1C#N | 4.8 | 0.69 | 3 | -2 | 6 | 2.5 | i | -9.9 | 95*
COc1ccc(CCNC(=O)CCNC(=O)N2CC(=O)Nc3ccccc32)cc1 | 4.1 | 0.72 | -4 | 2 | 9 | -1.7 | i | -1.7 | -16
CC(C)(C)NS(=O)(=O)c1ccc(NC(=O)C(Sc2ccccc2)c2ccccc2)cc1 (stereo unspecified) | 0.4 | 0.77 | 5 | nt | nt | nt | nt | 5.0 | -17
Cc1cc(C)c2c(-c3ccc(F)cc3)c(C#N)c(=O)n(C)c2n1 | -17 | 0.72 | -14 | 3 | 6 | -1.5 | i | 0.6 | -2
CCOc1ccccc1-c1ccc(C(=O)NCc2ccccc2)o1 | -15 | 0.69 | 3 | -22 | -21 | -2.7 | i | -0.6 | 0
CN(N)c1nc(N2CCCC2)nc(N2CCCC2)n1 | 5.0 | 0.64 | 0 | nt | nt | nt | i | 0.1 | -7
CCCN(CCC)C(=O)c1ccc2c(=O)n(Cc3ccco3)c(=S)[nH]c2c1 | 1.2 | 0.63 | -15 | 10 | 9 | 4.0 | i | -1.1 | 6
O=S(=O)(NCC1CCCO1)c1ccccc1F (stereo unspecified) | -0.1 | 0.71 | -10 | 19 | 18 | 3.0 | i | 4.3 | -6
Cc1ccc(CCNC(=O)CCNS(=O)(=O)c2ccc3c(c2)oc(=O)n3C)cc1 | -1.0 | 0.72 | -7 | nt | nt | nt | nt | 3.8 | -15
CS(=O)(=O)N(CCc1ccccc1)CC(=O)Nc1ccc(OCc2ccccc2)cc1 | 0.1 | 0.67 | -5 | nt | nt | nt | nt | -3.3 | -10
O=C(O)CC(NC(=O)C1CCCCC1)c1cc([N+](=O)[O-])ccc1Cl (stereo unspecified) | -0.5 | 0.65 | -5 | 19 | 5 | -0.8 | i | 1.8 | 7
C=CCNC(=S)NNC(=O)c1ccc(OC(C)C)cc1 | 7.2 | 0.71 | -2 | nt | nt | nt | nt | 1.1 | 4
NC(=O)c1c(NC(=O)c2cc3ccccc3o2)sc2c1CCC2 | -81 | 0.73 | -11 | nt | nt | nt | nt | 2.1 | 17
CC(=O)c1ccc(N(C(=O)c2csnn2)C(C(=O)NC(C)(C)C)c2cccs2)cc1 (stereo unspecified) | -0.3 | 0.66 | -5 | -3 | 1 | -4.6 | i | -2.6 | -5
O=C(C1CCCN(S(=O)(=O)c2ccccc2)C1)N1CCCc2ccccc21 (stereo unspecified) | -0.1 | 0.73 | 10 | nt | nt | nt | nt | -1.7 | -1
Cc1cc(NC(=O)Cn2nc(C(F)(F)F)c3c2CCC3)n(-c2ccccc2)n1 | 2.4 | 0.62 | 7 | nt | nt | nt | nt | -1.1 | -20
Cc1cc(Cl)ccc1OCc1n[nH]c(=S)n1C1CCCCC1 | -0.2 | 0.67 | 0 | nt | nt | nt | nt | -3.1 | 20
O=C(COC(=O)c1sc2ccccc2c1Cl)Nc1ncc(Cl)cc1Cl | nt | nt | 13 | 9 | 2 | -1.8 | i | 0.5 | -8
CCCCn1c(N)c(N(CCC(C)C)C(=O)c2cccc(N3C(=O)c4ccccc4C3=O)c2)c(=O)[nH]c1=O | nt | nt | 2 | 5 | 2 | 1.5 | i | 3.1 | -6
COc1ccc(C2NC(=O)CS2)cc1OC (stereo unspecified) | 0.9 | 0.68 | 3 | nt | nt | nt | nt | 3.7 | 98*
Cc1cc(C)n(CC(O)COc2ccc(Cl)cc2Cl)n1 (stereo unspecified) | nt | nt | -5 | -1 | -4 | 1.5 | i | -1.6 | -1
CC(C)=C1C2CCC1C1C(=O)N(CCc3ccccc3)C(=O)C21 (stereo unspecified) | -1.3 | 0.7 | -4 | nt | nt | nt | nt | -1.9 | -4
CCOC(=O)CSc1cc(CS(C)(=O)=O)nc(-c2ccccn2)n1 | -1.0 | 0.67 | -4 | 7 | 7 | 2.4 | i | -1.2 | nt
CN(O)/C=C1\C(=O)Nc2ccccc21 | 2.4 | 0.73 | 7 | nt | nt | nt | nt | -1.6 | ?
Cc1ccc(Nc2nc(Nc3ccc(C)cc3)nc(SC3=NCCS3)n2)cc1 | 0.7 | 0.72 | -5 | nt | nt | nt | nt | 3.2 | -1
O=C(Nc1cccc(Br)c1)c1ccc2nc(N3C(=O)CCC3=O)sc2c1 | -31 | 0.67 | -3 | nt | nt | nt | nt | -2.2 | 1
C=CCNC(=O)c1ccc(-c2nc(-c3ccc(Cl)c(Cl)c3)cs2)cc1 | -3.2 | 0.74 | 4 | nt | nt | nt | nt | 3.9 | -6
CCCC1(c2ccccc2)NC(=O)N(CC(=O)Nc2cc(C)ccc2OC)C1=O (stereo unspecified) | 6.6 | 0.7 | -1 | -3 | 1 | -3.5 | i | 0.3 | -2
Cc1ccc(C)c(N2CCN(CCCNC(=O)CCC(=O)N3CCOc4ccc(Cl)cc43)CC2)c1 | nt | nt | nt | -54 | -82 | -20 | i | nt | 17
COC(=O)c1ccccc1NC(=O)c1cnn2c(C(F)F)cc(C3CC3)nc12 | nt | 0.72 | 17 | nt | nt | nt | nt | -0.6 | -5
O=C(c1cc(Cl)cc(Cl)c1)N1CCC2CC1c1cc(-c3ccc4c(c3)OCO4)ccc12 (stereo unspecified) | nt | nt | 4 | 4 | 14 | -2.2 | i | -0.2 | nt
Cc1cccc(C(O)c2ncc(-c3cccc(C(F)(F)F)c3)[nH]2)c1C (stereo unspecified) | nt | nt | nt | -63 | -83 | -25 | i | -1.1 | nt
COc1ccc(OCC(=O)C2CC2)c(C#N)c1 | 4.5 | 0.64 | 3 | 4 | -6 | -3.8 | i | -0.6 | -10
Cc1c(Cl)cccc1-n1ccnc1SCC(=O)O | 3.1 | 0.69 | 4 | nt | nt | nt | nt | 4.0 | 1
CCC(C)S(=O)(=O)c1snnc1C (stereo unspecified) | 31* | 0.7 | 4 | nt | nt | nt | nt | 1.3 | -1
Cc1cc(C)cc(Oc2nc3ccccn3c(=O)c2/C=C(\C#N)C(=O)NC2CCS(=O)(=O)C2)c1 (stereo unspecified) | nt | nt | 2 | 5 | 17 | 0.9 | i | -0.2 | 35
O=c1c2ccccc2nc(-c2ccc(Br)cc2)n1Cc1ccccc1 | -0.3 | 0.69 | -1 | -32 | -29 | -5.2 | i | 1.4 | 2
CCCCC(=O)NC(=S)Nc1cc(C(=O)O)ccc1OC | 0.9 | 0.68 | -3 | -7 | -4 | -1.6 | i | 0.9 | -1
Cc1cc(NC(=O)c2cnccn2)no1 | 0.8 | 0.66 | nt | 26 | 15 | 1.7 | i | nt | nt
Cc1ccc(-c2ccnc(-c3ccc(O)cc3)n2)cc1 | 0.0 | 0.68 | -14 | 16 | 9 | 4.8 | i | 0.2 | -30
CSc1ncc(C(C)=O)c(C)n1 | 0.3 | 0.68 | -8 | 11 | 4 | -1.9 | + | -0.9 | 6
O=C(CSc1nc2ccccc2o1)Nc1nncs1 | 0.5 | 0.74 | -1 | nt | nt | nt | nt | 0.8 | -12
CC(C)CCn1c(CN2CC(C)OC(C)C2)nc2c1c(=O)n(C)c(=O)n2C (stereo unspecified) | 2.5 | 0.8 | -5 | 1 | -2 | 3.5 | i | -1.1 | -13
Cn1c(CNC(=O)c2ccco2)nnc1SCC(=O)Nc1cccc(Br)c1 | -0.2 | 0.65 | -1 | nt | nt | nt | nt | 2.5 | -2
